GIV Gai3 FP: inhibitors of GIV GBA-motif binding to rat Galpha-i3; AID 1224905; P08753; Galpha-i3/FITC-GIV peptide fluorescence polarization, 90 min; hits give low values; scaled: aluminum fluoride 0%, vehicle 100%; percent of control (FP), % (concentration not given with the values); 210,000 compounds, 0.42% hits;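 active = replicate mean at 85% of control or lower, very high polarization wells dropped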;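 note: wells of about 15 µL received 100 nL stock; the first replicate is given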
Target sequence (P08753 whole entry, looked up): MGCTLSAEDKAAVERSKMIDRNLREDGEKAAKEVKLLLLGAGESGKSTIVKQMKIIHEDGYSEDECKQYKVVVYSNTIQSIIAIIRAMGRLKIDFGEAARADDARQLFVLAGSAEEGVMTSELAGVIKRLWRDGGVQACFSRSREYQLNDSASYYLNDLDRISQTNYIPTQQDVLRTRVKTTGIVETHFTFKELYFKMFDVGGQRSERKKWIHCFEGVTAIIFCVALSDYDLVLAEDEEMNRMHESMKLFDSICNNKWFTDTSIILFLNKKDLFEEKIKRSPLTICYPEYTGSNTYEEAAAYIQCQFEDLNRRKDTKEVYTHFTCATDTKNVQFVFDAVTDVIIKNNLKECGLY
HCMV NEC inh: inhibitors of HCMV UL50-UL53 nuclear egress complex interaction; 190,000 compounds, 0.15% hits; HTRF UL50-UL53 interaction, normalized percent inhibition; inhibition, % (no concentration beside the values); AID 1918969;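 active = both replicates at 50% or more, plus weaker picks with an unusually low signal ratio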;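 note: stock transfer was 100 nL into about 20 µL; 0% = negative control wells and 100% = wells with untagged competitor protein; inactives centre near -12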
Sa growth 42C: S. aureus growth inhibition. S. aureus RN4220 growth, OD600, 20 h, 42 °C; hits give low values. relative growth, % (test concentration not listed). 170,000 compounds, 0.53% hits;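 active = growth at 42 °C up to 50% and 20 or more points under that at 30 °C, or under 10% at both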;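 note: 300 nL library stock went into each well; scaled to the means of positive and negative controls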
Sa growth 42C second temp: recorded beside Sa growth 42C, whose call it bears; relative growth, %; measured here: growth at 30 °C;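 optical density after 20 h as mean of two plates; 100% = untreated growth and lower means inhibition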
The depositor's hits bear a star; · = not tested or not shown; & = joins results of further samples.

SMILES | GIV Gai3 FP | HCMV NEC inh | Sa growth 42C | Sa growth 42C second temp
CC(C)Oc1ccc(CNC(=O)c2ccc(-n3nnc4cccnc43)cc2)cc1 | 115 | -36 | · | ·
COc1ccc(-c2ocnc2C(=O)NCC(C)c2ccccc2)cc1 (stereo unspecified) | 112 | -24 | 88 | 73
O=C(CNCc1ccccn1)NCc1ccc(Cl)cc1 | · | 18 | 108 | 94
NC(=O)c1c(-c2ccc(Cl)cc2)nc2n1CCS2(=O)=O | 102 | -16 | · | ·
O=C(NCCCn1ccnc1)Nc1ccc(Cl)cc1 | 102 | · | 90 | 75
Cn1cc(NC(=O)N(CCO)Cc2ccccc2)c2ccccc21 | 103 | -34 | 93 | 80
O=C(CCSCc1cccc(Cl)c1)NCc1ccccc1Cl | 99 | · | 102 | 88
CCC(=O)c1cc(-c2nc3ccccc3n2C)n(C)c1 | · | 18 | 96 | 97
CCOC(=O)C1CCCN(CC(=O)Nc2ccc(C(=O)Nc3ccccc3OC)cc2)C1 (stereo unspecified) | · | -28 | 71 | 90
CC(C(=O)O)N1c2cccc3cccc(c23)S1(=O)=O (stereo unspecified) | 103 | -4 | 73 | 102
Cc1ccc(-c2nn(CC(=O)NC3CCCCC3)c3c2cnc2ccccc23)cc1 | 96 | · | 76 | 90
CC(C)CCn1c(CCCC(=O)NCc2ccccc2)nc2cccnc21 | 147 | -13 | · | ·
O=C1CC(c2ccc(S(=O)(=O)N3CCCc4ccccc43)cc2)CN1 (stereo unspecified) | 94 | -28 | 113 | 80
O=C1CCCC(O)=C1C1c2ccccc2OC2CCCC(=O)C21 (stereo unspecified) | · | -7 | 94 | 92
COc1ccc(CCNc2nc(C)nc3c(-c4ccc(Cl)cc4)noc23)c(OC)c1 | 97 | 0 | · | ·
O=C(O)c1ccc(C(=O)O)c(F)c1 | 103 | -4 | 96 | 87
Cn1ccnc1SCC(=O)Nc1ccc2ccccc2c1 | · | -47 | 109 | 90
Cc1ccc(-c2cc(C(=O)N3CCC(C(N)=O)CC3)no2)cc1 | 105 | -4 | · | ·
COc1ccc(C2=NN(C(C)=O)C(c3cc4cccc(C)c4nc3Cl)C2)cc1OC (stereo unspecified) | 100 | -10 | · | ·
O=C(Nc1cccc(C(F)(F)F)c1)Nc1nnc(N2CCCCCC2)s1 | 101 | -18 | 118 | 94
CN(C)/C=C1/C(=O)N(c2ccccc2)N=C1C(C)(C)C | 110 | -22 | 62 | 35
Cc1ccc(NC(=O)[C@@H](c2ccccc2)N2Cc3ccccc3C2=O)cc1 | 102 | -23 | 99 | 85
Cc1oc2ncnc(N3CCOCC3)c2c1C(=O)NCCCN(C)c1ccccc1 | 101 | 4 | · | ·
Clc1ccc(-c2noc(CCCSc3nnnn3-c3ccccc3)n2)cc1 | · | -16 | 110 | 96
CCN(CC)C(=O)CN1C=NS(=O)(=O)c2ccccc21 | 104 | -16 | 94 | 95

(more compounds)
SMILES | GIV Gai3 FP | HCMV NEC inh | Sa growth 42C | Sa growth 42C second temp
CC(C)(C)OC(=O)N1CCC(c2c(C(=O)N3CCN(C4CCCCC4)CC3)cnn2-c2cccc(Cl)c2)CC1 | 96 | · | 106 | 89
O=C(O)CCCc1nc2ccccc2[nH]1 | 103 | -16 | 97 | 86
Cc1ccccc1-c1nnc(SCC(=O)N2c3ccccc3Sc3ccccc32)o1 | 106 | -26 | 63 | 52
CC(NC(=O)C1CCN(C(=O)c2ccc(-n3ccc4ccccc43)s2)CC1)c1ccccc1 (stereo unspecified) | 102 | · | 118 | 84
COc1ccc(C(CNC(=O)NCC(c2ccc(OC)cc2)N2CCCCC2)N2CCCCC2)cc1 (stereo unspecified) | · | 3 | 88 | 98
COc1ccccc1CNC(=O)c1ccc2c(c1)N(Cc1cccc(Cl)c1)C(=O)c1ccccc1S2(=O)=O | 97 | · | 109 | 108
O=C1CCC(C(=O)O)(c2ccccc2)C1 (stereo unspecified) | · | -8 | 110 | 81
N#CC1(C#N)[C@H](C(N)=O)[C@H]1c1ccccc1 | 130 | -54 | 97 | 84
O=C(c1ccc(N2CCCC2)c(S(=O)(=O)N2CCCC2)c1)N1CCN(c2ccc(F)cc2)CC1 | 107 | 12 | · | ·
CCn1cnc(S(=O)(=O)N2CCC(C(=O)N3CCc4ccccc43)CC2)c1 | 105 | -27 | · | ·
Cc1ccc(NC(=O)C2CCCN(c3nnc(-n4c(C)ccc4C)s3)C2)c(C)c1 (stereo unspecified) | 102 | 8 | 97 | 100
CCn1cc(C2=NOC(C(=O)Nc3cccnc3)C2)c(C)n1 (stereo unspecified) | 97 | -6 | 100 | 88
N#CC(C#N)=C(N)C(C#N)Cc1ccc(C#N)cc1 (stereo unspecified) | · | -5 | 91 | 97
COc1ccc(CNC(=O)Cn2ccc3cc(S(=O)(=O)N4CCCCCC4)ccc32)cc1OC | 101 | · | 106 | 100
COC(CN1C(=O)c2ccccc2C1=O)OC | 100 | -46 | 115 | 112
Cc1ccc(-c2nccc(Nc3ccc(C(=O)Nc4ccc5c(c4)OCO5)cc3)n2)cc1 | 101 | 0 | · | ·
CCc1ccccc1NC(=O)C1CCCCN1S(=O)(=O)c1ccc2c(c1)nnn2CCOC (stereo unspecified) | 113 | 5 | · | ·
CC(C)n1nccc1/N=C1\N=C(N)c2ccccc21 | · | -51 | 96 | 92
O=C(Nc1cccc(-c2noc(C3CCC3)n2)c1)C1CC(=O)N(c2ccccc2)C1 (stereo unspecified) | 103 | -24 | · | ·
O=C(COc1ccc2c(c1)C(=O)CC1(CCCCC1)O2)NC1CC1 | 96 | -3 | 106 | 89
C=CCN1C(=O)/C(=C\c2cn(CCOc3ccccc3OC)c3ccccc23)SC1=S | 168 | · | 116 | 94
Cc1cc(C)c2c(CC(=O)Nc3ccc(S(=O)(=O)Nc4ncccn4)cc3)coc2c1 | 107 | -26 | 110 | 90
COc1ccc(CN(C(=O)Nc2ccc(C)c(F)c2)C2CCN(C(C)=O)CC2)cc1 | 106 | · | 112 | 86
CCOc1ccc2c(c1)sc1nc(=O)n(-c3ccc(Cl)c(Cl)c3)c(=O)n12 | 107 | -27 | 106 | 88
COc1ccc(CCNc2nc(C)nc3c2nnn3Cc2ccccc2)cc1OC | 104 | -6 | 112 | 78

Not a retest: an excerpt of the list.
SMILES | GIV Gai3 FP | HCMV NEC inh | Sa growth 42C | Sa growth 42C second temp
CC(C)(C)OC(=O)N1CCC(c2c(C(=O)N3CCN(C4CCCCC4)CC3)cnn2-c2cccc(Cl)c2)CC1 | 96 | · | 106 | 89
O=C(O)CCCc1nc2ccccc2[nH]1 | 103 | -16 | 97 | 86
Cc1ccccc1-c1nnc(SCC(=O)N2c3ccccc3Sc3ccccc32)o1 | 106 | -26 | 63 | 52
CC(NC(=O)C1CCN(C(=O)c2ccc(-n3ccc4ccccc43)s2)CC1)c1ccccc1 (stereo unspecified) | 102 | · | 118 | 84
COc1ccc(C(CNC(=O)NCC(c2ccc(OC)cc2)N2CCCCC2)N2CCCCC2)cc1 (stereo unspecified) | · | 3 | 88 | 98
COc1ccccc1CNC(=O)c1ccc2c(c1)N(Cc1cccc(Cl)c1)C(=O)c1ccccc1S2(=O)=O | 97 | · | 109 | 108
O=C1CCC(C(=O)O)(c2ccccc2)C1 (stereo unspecified) | · | -8 | 110 | 81
N#CC1(C#N)[C@H](C(N)=O)[C@H]1c1ccccc1 | 130 | -54 | 97 | 84
O=C(c1ccc(N2CCCC2)c(S(=O)(=O)N2CCCC2)c1)N1CCN(c2ccc(F)cc2)CC1 | 107 | 12 | · | ·
CCn1cnc(S(=O)(=O)N2CCC(C(=O)N3CCc4ccccc43)CC2)c1 | 105 | -27 | · | ·
Cc1ccc(NC(=O)C2CCCN(c3nnc(-n4c(C)ccc4C)s3)C2)c(C)c1 (stereo unspecified) | 102 | 8 | 97 | 100
CCn1cc(C2=NOC(C(=O)Nc3cccnc3)C2)c(C)n1 (stereo unspecified) | 97 | -6 | 100 | 88

Carrying on:
SMILES | GIV Gai3 FP | HCMV NEC inh | Sa growth 42C | Sa growth 42C second temp
CC1(C)CC(=O)C2=C(C1)Nc1ccccc1N(C(=O)c1ccccc1)C2c1ccc([N+](=O)[O-])s1 (stereo unspecified) | 113 | -51 | · | ·
COc1ccc(C)c2sc(NC(=O)c3ccc(S(=O)(=O)N4CCCC4)cc3)nc12 | 96 | · | 85 | 91
CN(C)c1cc2c(cc1NS(=O)(=O)c1ccccc1)n(C)c(=O)n2C | 103 | · | 100 | 90
Cc1ccc(C)c(N2CCN(c3ncnc4nc[nH]c34)CC2)c1 | 101 | 0&-24 | · | ·
CCOc1ccc(C(c2nnnn2C(C)C)N2CCN(c3cccc(Cl)c3)CC2)cc1 (stereo unspecified) | 101 | -20 | 93 | 94
COC(=O)C(C#N)=C1CCCC1 | · | -28 | 82 | 88
O=C(O)C1CC1C(=O)Nc1ccc(Oc2ccc(F)cc2)nc1 (stereo unspecified) | 106 | 4 | 106 | 99
Cc1ccc2onc(CNC(=O)Nc3cc(F)ccc3F)c2c1 | 107 | · | 107 | 76
O=C(NCc1ccccc1Cl)c1cc2ccccn2n1 | 104 | · | 113 | 94
COc1ccc(S(=O)(=O)N2CCc3cc4ccc(OC)cc4nc32)cc1 | 103 | -11 | · | ·
O=C(NC(Cc1ccccc1)C(=O)N1CCCc2ccccc21)c1ccco1 (stereo unspecified) | · | -10 | 95 | 88
O=C(Cn1c(=O)n(-c2ccc(CC(=O)NC3CC3)cc2)c(=O)c2ccccc21)NCCc1ccccc1 | 99 | -6 | · | ·
Cc1ccccc1OCC(=O)Nc1ccccc1OCc1cc(=O)n2ccccc2n1 | 105 | · | 91 | 91
CC1CCC2(C)c3[nH]c4ccccc4c3CCN2C1=O (stereo unspecified) | 103 | 9 | 105 | 90
O=C(Nc1ccnn1Cc1ccccc1)c1cccnc1SC(F)F | · | 6 | 95 | 95
Cc1cccc(C(=O)OCC(=O)NC2CCCCCC2)c1O | · | -20 | 108 | 88
CCOC(=O)c1cnc(SC(C)C(=O)N2CCCc3ccccc32)nc1N (stereo unspecified) | 137 | -31 | 101 | 82
Cc1nc(N2CCN(c3ccccc3F)CC2)[nH]c(=O)c1CCC(C)C | 100 | -20 | · | ·
Cc1ccc(-n2c(Cc3cccn3C)nnc2SCC(=O)N2CCN(c3ccccc3)CC2)cc1 | 98 | · | 100 | 71
CCn1c(C)c(C)c2cc(C(=O)NC)ccc21 | 131 | -16 | · | ·
COc1ccc(Cl)cc1S(=O)(=O)Nc1cc(C(=O)O)cnc1N1CCCC1 | 120 | -27 | · | ·
OC(COc1ccccc1)Cn1cnc2ccccc21 (stereo unspecified) | · | 4 | 99 | 94
CN(C)c1ccc(-c2nc3cnccn3c2Nc2ccc(C(=O)O)cc2)cc1 | 108 | -15 | · | ·
CCCCC12CN(C(=O)CC)CC(C)(CN(C(=O)CC)C1)C2=O | 101 | -6 | · | ·
CNC(=O)CN1C(=O)COc2ccc(S(=O)(=O)N3CCC(C)CC3)cc21 | 100 | -10 | 84 | 86

Next part
SMILES | GIV Gai3 FP | HCMV NEC inh | Sa growth 42C | Sa growth 42C second temp
CN(C)CCNC(=O)c1cc2n(n1)CC(C)(C(=O)NC1CCCC1)N(C)C2=O (stereo unspecified) | 105 | -8 | · | ·
Cn1c(=O)c2c(n3c4ccccc4nc13)NC(=O)CC2c1ccccc1F (stereo unspecified) | 106 | · | 98 | 101
Fc1ccc(-c2cnc(CSc3nnc(-c4ccccc4)n3-c3ccc(F)cc3)o2)cc1 | · | 4 | 97 | 95
CN(C)c1nc2ccccc2n2cnnc12 | 100 | · | 103 | 85
Cc1sc2nc(NCCO)[nH]c(=O)c2c1C | 103 | -17 | 90 | 82
COc1ccc(-n2cc(C(=O)N3CCCN(Cc4ccccc4F)C3)c3ccccc3c2=O)cc1 | 98 | · | 84 | 83
CC(C)Oc1ccc(C(=O)Nc2nnc3n2CCS3)cc1 | 105 | · | 110 | 99
COC(=O)C(CC(=O)Nc1cc(C)ccc1C)Nc1ccccc1OC (stereo unspecified) | · | 0 | 103 | 91
Cc1cc(C)c2c(CC(=O)N(C)C)coc2c1 | 112 | 10 | 104 | 86
Nc1ccccc1SC1CC(=O)N(c2ccc3c(c2)OCCO3)C1=O (stereo unspecified) | 101 | 6 | 104 | 100
Cc1cccc(NC(=O)CN2C(=S)NC(C)(C)CC2C)c1C (stereo unspecified) | 101 | 4 | 93 | 96
COc1ccccc1NC(=O)[C@H](Cc1ccccc1)NC(=O)c1ccco1 | · | 2 | 92 | 95
O=C(NCCCO)C(=O)NCc1n[nH]c(=O)c2ccccc12 | 107 | -7 | · | ·
CC(=O)Nc1cc(C(=O)N2CCN(c3ccc(-c4noc(C)n4)cc3)CC2)ccc1C | 104 | -36 | · | ·
O=C(CCC(=O)N1CCOc2ccccc21)NCC1CCCO1 (stereo unspecified) | 102 | -17 | 79 | 82
CCc1nn(CC(=O)NC2CC2)c(=O)c2cc3ccccc3n12 | 110 | -19 | 102 | 101
CCN(CC)S(=O)(=O)c1cccc(C(=O)Nc2ccccc2C(=O)Nc2ccc(OC)cc2)c1 | 101 | · | 106 | 87
COc1ccc2cc(C(C)C(=O)NCc3ccccc3)ccc2c1 (stereo unspecified) | 98 | -5 | 105 | 90
O=C1C[C@H](N2C(=O)CCC2=O)C2CO[C@@H]1O2 | · | -8 | 115 | 89
CCn1c(=O)c(-c2noc(CCC(=O)Nc3ccccc3F)n2)nn(-c2ccccc2)c1=O | 102 | -60 | · | ·
COC(=O)c1c(C)oc2ccc(O)c(CN3CCCCC3C)c12 (stereo unspecified) | 101 | -11 | · | ·
Cc1ccc2nc3n(c(=O)c2c1)CCCc1nn(-c2nc(C)cc(C)n2)c(N)c1-3 | · | -27 | 96 | 93

High-throughput results deposited in PubChem by ICCB-Longwood Screening Facility, Harvard Medical School.
